# Compound activity as filed in PubChem BioAssay.
# N370S GC: qHTS Assay for Inhibitors and Activators of N370S glucocerebrosidase as a Potential Chaperone Treatment of Gaucher Disease | Lysosomal acid glucosylceramidase (Homo sapiens), P04062 | N370S GC spleen homogenate, 4MU-glucoside fluorescence | Potency, µM (top dose mostly 59.4 µM), without a hit: at the top dose activity change, negative = inhibition, usual class: inhibitors | 330,000 tested, 0.092% active;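 note: 0% = full enzyme activity and -100% = no enzyme basal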
# GCN5L2 inh: qHTS Assay for Inhibitors of GCN5L2 | GCN5L2 HAT assay, ThioGlo1 CoA-SH fluorescence | Potency, µM (doses to about 58.9 µM), for the others: top-dose activity change, negative = inhibition, actives largely listed as inhibitors | 390,000 tested, 0.21% active | AID 504327, 2011
# Target sequence (Q92830 whole entry, looked up): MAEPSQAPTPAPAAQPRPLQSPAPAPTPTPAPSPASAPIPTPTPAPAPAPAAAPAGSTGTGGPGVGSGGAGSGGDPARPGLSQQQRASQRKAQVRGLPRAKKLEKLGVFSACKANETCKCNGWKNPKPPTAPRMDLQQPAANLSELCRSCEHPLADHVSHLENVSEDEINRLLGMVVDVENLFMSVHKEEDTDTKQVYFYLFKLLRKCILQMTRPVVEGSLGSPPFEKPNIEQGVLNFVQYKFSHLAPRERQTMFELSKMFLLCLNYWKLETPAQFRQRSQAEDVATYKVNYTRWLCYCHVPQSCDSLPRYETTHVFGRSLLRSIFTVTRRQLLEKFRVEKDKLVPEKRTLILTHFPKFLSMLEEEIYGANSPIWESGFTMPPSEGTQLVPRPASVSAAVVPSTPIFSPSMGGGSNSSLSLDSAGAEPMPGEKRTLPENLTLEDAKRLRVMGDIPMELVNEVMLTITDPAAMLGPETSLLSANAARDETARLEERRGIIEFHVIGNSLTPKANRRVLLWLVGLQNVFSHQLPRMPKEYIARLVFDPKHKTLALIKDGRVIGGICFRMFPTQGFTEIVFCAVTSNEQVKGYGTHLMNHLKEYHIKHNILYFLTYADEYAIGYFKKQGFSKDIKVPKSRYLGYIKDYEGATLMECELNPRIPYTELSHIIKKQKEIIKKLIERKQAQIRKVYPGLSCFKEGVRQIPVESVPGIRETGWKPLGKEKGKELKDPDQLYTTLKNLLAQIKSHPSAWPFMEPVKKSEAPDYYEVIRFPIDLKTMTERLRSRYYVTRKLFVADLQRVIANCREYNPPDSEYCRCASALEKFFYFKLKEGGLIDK
#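 Titration-based screen in which CoA formation is detected via maleimide probe ThioGlo1 (50uM) turning fluorescent on thiol reaction; substrates H3(1-25) 75uM and acetyl-CoA 70uM, GCN5L2 20nM, 20 min incubation at room temperature.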
# Starred values were filed as active, the others as inactive; u = inconclusive; x = not tested or not shown; & = joins results of further samples; [ ] = another dose, or the depositor's remark. Calls come from the whole dose curve; as a rule, active = well fitted curve in the direction sought with a large enough effect; inconclusive = small, poorly fitted or top-dose-only effect, or another doubt; inactive = no such curve, though single readings can be large; an effect the other way counts as inactive or inconclusive. Unless noted, % is set by controls: 0 for no effect and ±100 for the full control effect; potency is the fitted concentration of half-maximal effect. These rows are one share of the data; most or all hits stand in other tables.
entry | canonical_smiles | GCN5L2 inh | N370S GC
1 | CCOc1ccc(CCNC(=O)CCCc2cc(-c3ccc(OCC)cc3)on2)cc1 | -2% | x
2 | COCCCNC(=O)c1ccc(CS(=O)(=O)c2ccc(OC)cc2)o1 | -3% | -1%
3 | O=[N+]([O-])c1ccc(N2CCOCC2)cn1 | -8% | -6%
4 | CCOCc1nnc(NC(=O)COc2ccc3c(c2)OCO3)s1 | -8% | -10%
5 | CCc1noc(C)c1C(=O)N1CCCSC1=Nc1ccccc1C(C)C | -13% | -7%
6 | CCC(=O)Nc1c2c(nc3c1CCC3)CCCC2 | 1% | 6%
7 | O=C1CC(N2CCN(c3ccc(F)cc3)CC2)C(=O)N1Cc1ccc(N2CCCC2=O)cc1 (stereo not drawn) | -7% | -11%
8 | OC(CC#CCN1CCCCC1)(c1ccccc1)c1ccccc1 | -10% | 0%
9 | CC(=O)c1cccc(NC(=O)c2noc3c2CCc2ccccc2-3)c1 | -5% | 2%
10 | O=C(NCc1ccccc1)c1ccc(CS(=O)(=O)Cc2ccc(F)cc2)o1 | -14% | u
11 | CC(C)=NOCC(=O)Nn1c(COc2c(C)cccc2C)nc2ccccc2c1=O | -23% | -15%
12 | CN1CCN(c2ccc(NC(=O)c3ccc(-c4ccc(Br)cc4)o3)cc2)CC1 | -10% | 6%
13 | CCc1noc(C)c1C(=O)N1CCN(S(=O)(=O)c2ccc(Br)cc2Cl)CC1 | -17% | -9%
14 | Cc1noc(C)c1C(=O)NC1CCCc2ccccc21 (stereo not drawn) | -2% | 1%
15 | CN(CC(=O)Nc1ccc(Cl)c(C(F)(F)F)c1)CC(=O)NC1CCCCC1 | -10% | x
16 | O=C(NCc1ccccn1)c1ccc(Cl)c(S(=O)(=O)N2CCOCC2)c1 | -1% | -14%
17 | CC(C)(C)c1cc(NC(=O)c2cccc(S(=O)(=O)N3CCOCC3)c2)no1 | 1% | -5%
18 | CCCCCN(C(=O)COC(=O)COc1c(C)cc(C)cc1C)c1c(N)n(CCCC)c(=O)[nH]c1=O | 4% | -22%
19 | O=C(COc1ccccc1Cl)NCCNC(=O)c1cnccn1 | 1% | -5%
20 | O=C(c1nc2ccccn2c1CN1CCCC(c2nc3ccccc3o2)C1)N1CCCC1 (stereo not drawn) | u | -7%
21 | CCCN(CC(=O)Nc1ccccc1C)C(=O)c1ccc(OCc2c(C)noc2C)cc1 | 1% | -1%
22 | O=C(c1cccc(Br)c1)N1CCCc2ccccc21 | -6% | 5%
23 | CN(C(=O)CSc1nc2cc(C(=O)O)ccc2c(=O)n1Cc1ccccc1)C1CCS(=O)(=O)C1 (stereo not drawn) | -13% | 5%
24 | COc1ccc(C)cc1NC(=O)CN1CCN(c2ccccn2)CC1 | -10% | 5%
25 | CCCCCC(=O)N=Nc1c(O)[nH]c2ccc([N+](=O)[O-])cc12 | -10% | 1%

# Single records, as listed above. Values in the order: GCN5L2 inh	N370S GC
# O=C(COc1ccccc1Cl)NCCNC(=O)c1cnccn1 is entered as 1%	-5%
# O=C(c1cccc(Br)c1)N1CCCc2ccccc21 is entered as -6%	5%
# COCCCNC(=O)c1ccc(CS(=O)(=O)c2ccc(OC)cc2)o1 is entered as -3%	-1%
# O=[N+]([O-])c1ccc(N2CCOCC2)cn1 is entered as -8%	-6%

# (continued)
entry | canonical_smiles | GCN5L2 inh | N370S GC
26 | COCCNC(=S)N/N=C/c1ccc(-c2ccc([N+](=O)[O-])cc2)o1 | -9% | -3%
27 | Cc1nn(C)c(C)c1S(=O)(=O)NC1CCCC1 | 3% | 1%
28 | Cc1oc(C(=O)O)cc1CSCc1ccoc1C(=O)O | -2% | 2%
29 | O=C(COc1ccc(Cl)cc1)NCCC1=CCCCC1 | -6% | 3%
30 | CC1CCCN(C(=O)C2CCN(c3nc(-c4ccccc4)nc4c3CCC4)CC2)C1 (stereo not drawn) | -4% | -17%
31 | COc1ccccc1N1CCN(C2CCN(C(=O)c3cccs3)CC2)CC1 | -2% | -1%
32 | O=S(=O)(c1ccc2[nH]ccc2c1)N1CCCCCC1 | -6% | 13%
33 | Clc1cccc(OCc2nc(-c3ccncc3)no2)c1 | -10% | -18%
34 | CCC(OC(=O)CN1C(=O)c2ccccc2C1=O)C(=O)NC1CCCC1 (stereo not drawn) | -2% | 2%
35 | CCc1nnc(NC(=O)CSc2nnc(-c3c[nH]c4ccccc34)n2C)s1 | -1% | 2%
36 | O=C(NCc1ccccc1CN1CCCC1)c1cccc(N2CCCC2=O)c1 | -2% | x
37 | CCOCCc1nn2c(=O)cc(COC(=O)CNC(=O)c3ccc(C(C)(C)C)cc3)nc2s1 | 16% | x
38 | CCOCc1nnc(NC(=O)CCS(=O)(=O)Cc2ccccc2)s1 | -1% | -1%
39 | COC(=O)c1ccc(Cn2c(CN3CCOCC3)nc3ccccc3c2=O)o1 | 0% | 13%
40 | Cc1nn(C)c(Cl)c1S(=O)(=O)N[C@@H](c1ccccc1)[C@]1(C)C[C@H]1[C@@H](C)C(=O)Nc1ccc2ccccc2c1 | -14% | 8%&-29%
41 | COc1cc([N+](=O)[O-])cc2sc(NC(C)=O)nc12 | -7% | -9%
42 | Cn1c(SCC(=O)NC2CCCC2)nc2cccnc21 | -6% | 5%
43 | COC(=O)C1=C(C(=O)OC)[C@@H]2N(C)c3ccccc3[C@@]23C[C@@H](C(=O)OC)N(C(=O)c2cc(C)oc2C)C3=N1 | -2% | -4%[12.8 µM]
44 | CC(C)CN(C(=O)c1ccc(S(=O)(=O)N2CCOCC2)cc1)C1CCS(=O)(=O)C1 (stereo not drawn) | -8% | 0%
45 | CC(=O)c1cccc(NC(=O)C(=O)Nc2cccc3ccccc23)c1 | -5% | 1%
46 | Cc1cc(C2=CC(=O)C[C@H](c3ccc4c(c3)OCO4)C2)ccc1F | 3% | x
47 | Cc1nn2c(N3CCOCC3)cc(C(C)C)nc2c1-c1ccccc1 | -3% | -14%
48 | CC(=O)NC(=O)c1cnn(-c2ccccc2)c1N | -4% | 7%
49 | O=C(N/N=C1\CC(c2ccccc2)Oc2ccccc21)c1cccnc1 (stereo not drawn) | -6% | -10%
50 | COc1ccc(CCNC(=O)CSc2cn(CCNC(=O)c3ccccc3F)c3ccccc23)cc1OC | 0% | x
51 | CCOCCCNC(=O)c1c(C)c(C(=O)OCC)n(C)c1C | 2% | 3%
52 | NC(=O)c1ccc[n+](Cc2ccc(-c3ccccc3)cc2)c1 | -3% | -7%
53 | Cc1cc(NC(=O)CCN2C(=O)/C(=C\c3ccccc3Cl)SC2=S)no1 | -6% | 7%
54 | Cc1ccc(NC(=O)NC(=O)CN2CCN(c3ccc(O)cc3)CC2)c(C)c1 | -9% | -8%
55 | Cc1ccc(S(=O)(=O)N2CCN(Cc3nc4ccccc4n3C)CC2)cc1 | -3% | -3%
56 | CC1CCCC(NC(=O)COC(=O)COc2cccc(F)c2)C1C (stereo not drawn) | 3% | x
57 | CN1C(C(=O)Nc2ccc(F)cc2F)=CC(c2cccs2)=NS1(=O)=O | -8%&-8% | -5%
58 | O=c1c2ccccc2n(Cc2ccccc2F)c(=O)n1Cc1ccccc1F | -12% | 18%
59 | Cn1c(=O)c2c(nc(SCC(=O)Nc3ccc(F)c(F)c3)n2Cc2ccccc2F)n(C)c1=O | 15% | x
60 | COc1ccc(S(=O)(=O)N2CCC(C(=O)NCCCn3ccnc3)CC2)cc1C | -5% | -15%
61 | CCOc1ccccc1OCCCC(=O)NNC(=O)c1cc(C)oc1C | 1% | x
62 | CC(C)Oc1ccc(CNC(=O)Cn2ccc3cc(S(=O)(=O)N4CCCC4)ccc32)cc1 | 1% | 1%
63 | CCCCNCCOCCSc1ccc(Cl)cc1 | 19% | -1%
64 | CN1CCN(CCNC(=O)c2cnn(-c3cccc(Cl)c3)c2C2CCN(C(=O)OC(C)(C)C)CC2)CC1 | -27% | x
65 | O=C(OCc1ccc(F)cc1Cl)c1ccccn1 | 1% | 6%
66 | CCOC(=O)C1CCCN(C(=O)Nc2ccccc2)C1 (stereo not drawn) | -14% | 3%
67 | O=C(O)c1ccc(Nc2nc3ccc(Cl)cc3[nH]2)cc1 | 0% | 3%
68 | CC1CN=C(N(C(=O)Nc2ccccc2)c2ccc(F)cc2)S1 (stereo not drawn) | -1% | -6%
69 | COc1cc2c(cc1OC)CN(c1ncccc1[N+](=O)[O-])CC2 | 2% | 1%
70 | Cc1ccc(C)n1-c1ccc(N2CCOCC2)cc1 | -3% | -11%
71 | O=C(N/N=C/c1cc([N+](=O)[O-])ccc1O)Nc1ccccc1 | -7% | 8%
72 | COc1cccc(-n2c(=O)c3sccc3n(CC(=O)NCC3CCCO3)c2=O)c1 (stereo not drawn) | -4% | 2%
73 | Cc1ccc(N2C(=O)CC(N(O)C3CC(=O)N(c4ccc(C)cc4)C3=O)C2=O)cc1 (stereo not drawn) | -2% | 8%
74 | Cc1ccccc1N/N=C/c1c(C)nc2ccccn12 | -7% | -10%
75 | Cc1cccc(C(=O)OCC(=O)N2CC(C)CC(C)C2)c1C (stereo not drawn) | -1% | x

# (list continues)
entry | canonical_smiles | GCN5L2 inh | N370S GC
76 | O=C(Nc1c2n(c(=S)n(-c3ccccc3)c1=O)CCCCC2)c1ccccc1 | -12% | 17%
77 | Cc1cc(NC(=O)CSc2nnc(-c3ccoc3C)n2N)no1 | 10% | -6%
78 | O=C(CSc1nnc(-c2ccccc2)c(-c2ccccc2)n1)NC1CCS(=O)(=O)C1 (stereo not drawn) | -15% | 4%
79 | Cc1ccn(CC(=O)N2CCCC(C(=O)c3cccc4ccccc34)C2)n1 (stereo not drawn) | -2% | 3%
80 | CON(C)c1nc(OCC#N)nc(N(C)C)n1 | 1% | 6%
81 | O=C(Nc1cccc(S(=O)(=O)NC2=NCCC2)c1)c1cc(-c2ccccn2)nc2ccccc12 | 0% | -9%
82 | COc1ccccc1-c1ccc(=O)n(CC(=O)NCc2ccc3c(c2)OCO3)n1 | -1% | 9%
83 | CC(NC(=O)COC(=O)/C=C/c1cccc(C(F)(F)F)c1)c1ccccc1 (stereo not drawn) | 0% | -2%
84 | Cc1ccc(C(C)C)c(OCC(=O)N/N=C2\CC(=O)CC(C)(C)C2)c1 | -4% | -8%
85 | Cc1[nH]nc(SCC(=O)NCc2ccc(F)cc2)c1[N+](=O)[O-] | -7% | -1%
86 | CCOc1ccc(S(=O)(=O)N(CC(=O)N/N=C/c2cccs2)c2ccc(C)cc2)cc1 | u | u
87 | CCCCn1nc(C(=O)Nc2ccccc2N2CCCC2)c2ccccc2c1=O | -12% | x
88 | CC(C)n1c(COc2ccccc2)nc2ccccc21 | -9% | 4%
89 | Clc1ccc(CN2C3=NCCCN3c3ccccc32)cc1 | -6% | 4%
90 | CC(C)n1cnnc1SCC(=O)Nc1cccc(S(=O)(=O)N(C)c2ccccc2)c1 | 3% | -11%
91 | Cc1ccc2c(Cl)c(C)c(N3CCCCC3)nc2n1 | -1% | 18%
92 | O=C(CCCN1C(=O)/C(=C\c2cccs2)SC1=S)NNC(=O)c1ccncc1 | -10% | -5%
93 | O=C(NCc1ccc(F)cc1)C(=O)Nc1ccc2nc3n(c(=O)c2c1)CCCCC3 | -8% | x
94 | Cc1oc2c(C)c3oc(=O)c(CCC(=O)N[C@@H](CC(C)C)C(=O)O)c(C)c3cc2c1C | u | 4%
95 | CCOc1ccc(C(CC(=O)O)NC(=O)C23CC4CC(CC(C4)C2)C3)cc1 (stereo not drawn) | 1% | 7%
96 | CCOC(=O)c1[nH]c(C)c(CCC(=O)OC)c1C | -16% | 5%
97 | Cc1cc(C)n2nc(/C(C#N)=C/c3ccccc3)c(C#N)c2n1 | -3% | 16%
98 | CCCCn1c(N)c(N(CCOC)C(=O)COc2ccc(C(C)=O)cc2)c(=O)[nH]c1=O | 1% | 0%
99 | COC(=O)C1CCN(C(=O)COc2ccc(Cl)cc2)CC1 | 0% | 3%
100 | CC(c1ccccc1)N1C(=O)/C(=C/c2ccncc2)SC1=S (stereo not drawn) | -4% | -13%
101 | S=c1[nH]c2ccc(Cl)cc2s1 | u | -13%
102 | CCc1ccc(-c2cn3c(n2)SCC3)cc1 | 3% | -14%
103 | O=C(CCn1c(=O)oc2ccccc21)NCCN1CCOCC1 | 6% | 28%
104 | Nn1c(Nc2ccccc2)nc2sc3c(c2c1=O)CCCC3 | 4% | 16%
105 | Fc1ccc(CNC(=S)NC2CCCCCC2)cc1 | -5% | 10%
106 | CCNC(=S)/C(=C(/[O-])c1ccc([N+](=O)[O-])cc1)[n+]1ccccc1 | -2% | 1%
107 | Cc1cccc(CNC(=O)CCCn2nc(C)c3c(C)n(-c4ccccc4)nc3c2=O)c1 | 5% | 0%
108 | N/C(=N\OC(=O)c1ccc2ccccc2c1)c1ccccc1Cl | -19% | 13%
109 | CC(C)(C)c1ccc(S(=O)(=O)N2CCN(Cc3noc(CCC(=O)N4CCCCC4)n3)CC2)cc1 | -8% | x
110 | O=C(NC1CC(=O)N(c2cccc(F)c2)C1)C(c1ccccc1)c1ccccc1 (stereo not drawn) | 3% | x
111 | CCOC(=O)c1cc(CC)sc1NC(=O)c1cc(OC)c(OC)c(OC)c1 | 0% | 1%
112 | S=c1[nH]nc(-c2ccccn2)n1/N=C/c1ccco1 | 2% | 0%
113 | COc1ccc(CC(=O)Nc2sc3c(c2C(N)=O)CCCC3)cc1OC | -3% | -5%
114 | O=C(N=C1SC2CS(=O)(=O)CC2N1c1ccccc1)c1ccccc1 (stereo not drawn) | 0% | x
115 | Cc1ccc(OCCC(=O)OCC(=O)Nc2cc(C)nn2-c2ccccc2)cc1 | -2% | -3%
116 | CC1(C)Cc2c(sc(NC(=O)C(=O)N3CCN(CCO)CC3)c2C(N)=O)CO1 | -3% | -6%
